KCNQ2 inh – KCNQ2 channel blockers in CHO-K1 cells – cell-based, FluxOR thallium flux, B-score, primary screen (AID 2156) | O88943 | 20 min; stronger effect = lower value; only compounds with negative scores are shown here; some inactives read as strong as hits | B-score at 10 µM | hit rate 1.1% among 310,000;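 active means fluorescence ratio B-score at most minus 3 library SDs, with starting brightness B-score within 2 library SDs, cut at about -5.5 in these data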
Target sequence (O88943 whole entry, looked up): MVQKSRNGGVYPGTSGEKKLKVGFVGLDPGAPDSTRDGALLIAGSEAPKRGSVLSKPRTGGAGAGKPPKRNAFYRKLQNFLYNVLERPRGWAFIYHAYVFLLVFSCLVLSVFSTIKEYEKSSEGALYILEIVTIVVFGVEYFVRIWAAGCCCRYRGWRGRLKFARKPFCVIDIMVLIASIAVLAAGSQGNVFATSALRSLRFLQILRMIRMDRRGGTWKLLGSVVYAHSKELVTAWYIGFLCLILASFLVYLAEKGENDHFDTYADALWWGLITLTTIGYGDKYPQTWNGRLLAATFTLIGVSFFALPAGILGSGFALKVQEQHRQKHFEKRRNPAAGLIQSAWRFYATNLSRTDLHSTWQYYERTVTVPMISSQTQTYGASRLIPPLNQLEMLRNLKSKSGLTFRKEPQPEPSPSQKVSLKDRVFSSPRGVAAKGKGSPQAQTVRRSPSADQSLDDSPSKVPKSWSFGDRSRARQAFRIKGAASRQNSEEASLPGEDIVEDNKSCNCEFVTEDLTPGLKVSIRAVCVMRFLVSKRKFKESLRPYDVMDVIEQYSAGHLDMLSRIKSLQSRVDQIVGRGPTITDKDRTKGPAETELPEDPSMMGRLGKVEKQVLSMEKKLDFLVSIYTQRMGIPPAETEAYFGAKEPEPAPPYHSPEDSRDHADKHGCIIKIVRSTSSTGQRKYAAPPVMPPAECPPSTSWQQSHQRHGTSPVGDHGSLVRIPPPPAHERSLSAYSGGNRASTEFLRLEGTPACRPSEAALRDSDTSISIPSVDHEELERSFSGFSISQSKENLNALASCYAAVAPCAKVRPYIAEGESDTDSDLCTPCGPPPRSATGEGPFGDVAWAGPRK
KCNQ2 inh baseline – recorded beside KCNQ2 inh, whose call it bears; B-score; measured here: initial fluorescence intensity artifact check;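 brightness before thallium and not channel activity; 0 = typical well and far values either way flag optical interference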
Starred values were filed as active, the others as inactive; i = inactive. Not all compounds are listed (hit frequency here may not be typical).

SMILES | KCNQ2 inh | KCNQ2 inh baseline
N#Cc1ccc(N2CCCC2C(=O)O)c([N+](=O)[O-])c1 (configuration not stated) | i | 0.67
COc1ccccc1CNc1nc(C)c(C(C)=O)s1 | i | 0.26
CCOC(=O)C(C(=O)OCC)C(C)(C)/C(C)=N\Nc1ccc([N+](=O)[O-])cc1[N+](=O)[O-] | i | -0.04
O=C(O)c1cccc(N2C(=O)c3cc([N+](=O)[O-])cc4cc([N+](=O)[O-])cc(c34)C2=O)c1 | i | -0.08
CCn1c(SCC(N)=O)nc2sc3c(c2c1=O)CCN(C)C3 | i | -0.63
COc1ccc(C(=O)COc2ccc(NC(C)=O)cc2)cc1 | i | -0.49
COc1ccc(S(=O)(=O)N2CCCCCC2)cc1N(C)S(=O)(=O)c1ccc(C)cc1 | i | -0.67
O=C(Nc1ccccc1)O/N=C(\c1ccccc1)c1ccccn1 | i | 0.53
O=C(OCCCC(=O)N1CCOCC1)c1ccccc1 | i | 0.43
Cc1cc(NC(=O)CCSc2ccccc2)no1 | i | -1.9
Cc1cc(C(=O)O)c(C)n1Cc1ccncc1 | i | -0.49
CC(C)CN(C(=O)C1CC1)c1c(N)n(Cc2ccccc2)c(=O)[nH]c1=O | i | 3.2
CC1=C(/C=C/C(C)=C/C=C/C(C)=C/C(=O)O)C(C)(C)CCC1 | i | 0.55
Cc1ccsc1C(=O)N1CC=C(c2ccccc2)CC1 | i | -0.13
CN(C)C=Nc1nonc1-c1ncn[nH]1 | i | -1
Cc1ccc(NC(=S)NCCc2ccccc2)c(C)c1 | i | 1.9
CC(C)c1ccc(N(CC(=O)NC2CCCCC2)C(=O)CCC(=O)Nc2ccccn2)cc1 | i | 1
S=C(NCCc1ccccc1)NC1CC2CCC(C1)N2Cc1ccccc1 (configuration not stated) | i | -0.43
CC1Cc2ccccc2N1C(=O)c1cc2sccc2n1Cc1ccccc1 (configuration not stated) | i | 2.2
Cn1c(Cc2nc(-c3cnccn3)no2)nnc1SCC(=O)Nc1ccccc1 | i | -0.94
CCOCCCNC(=O)C(c1ccc(C)cc1)N(Cc1ccc2c(c1)OCO2)C(=O)CNC(C)=O (configuration not stated) | i | 1.2
CCOC(=O)C(CC)(CCC(=O)O)c1csc(Nc2ccc(C)cc2)n1 (configuration not stated) | i | 2.1
COC(=O)CSc1nnc(-c2ccccc2O)n1-c1ccc(C)cc1 | i | -1.1
CCOc1ccc(/C=C2\SC(=S)N(CCC(=O)N(CCO)c3ccccc3)C2=O)cc1 | i | -0.9

Retrieved one by one from the entries so far (3):
SMILES | KCNQ2 inh | KCNQ2 inh baseline
N#Cc1ccc(N2CCCC2C(=O)O)c([N+](=O)[O-])c1 (configuration not stated) | i | 0.67
CCn1c(SCC(N)=O)nc2sc3c(c2c1=O)CCN(C)C3 | i | -0.63
CCOCCCNC(=O)C(c1ccc(C)cc1)N(Cc1ccc2c(c1)OCO2)C(=O)CNC(C)=O (configuration not stated) | i | 1.2

Remaining list, next part
SMILES | KCNQ2 inh | KCNQ2 inh baseline
Cn1c(N)c(C(=O)Nc2ccc(-c3ccccc3)cc2)sc1=S | i | -1.1
CC1CCN(c2ccc(-c3cccc(NC(=O)C(F)(F)F)c3)nn2)CC1 | i | 0.37
CCN(CC)CCN(C(=O)c1ccc2c(c1)CCCC2)c1nc2ccc(C)cc2s1 | i | 0.48
CN(C)CC(C)(C)CNC(=O)c1cc(Br)cc(Br)c1O | i | 0.47
CCc1nnc(NC(=O)C=C(C)C)s1 | i | 1.4
CCOc1cc(/C=C/C(=O)c2ccc(OC)c(CN3CCOCC3)c2)cc(Br)c1O | i | 1.9
CCc1ccc(N2CCN(CCNC(=O)Nc3ccccc3)CC2)cc1 | i | 0.81
Cc1ccc(CN2CCN(/N=C/c3cc(Br)cc(Br)c3O)CC2)c(C)c1 | i | -0.64
CCCS(=O)(=O)N1CCN(CCN2C(=O)c3cccc4cccc(c34)C2=O)CC1 | i | -0.02
COc1cc(/C=N/NC(=O)c2ccc(N)cc2)ccc1OC(=O)c1cccc(C)c1 | i | 3.5
O=C(NCc1ccc(F)cc1)c1cccc(S(=O)(=O)N2CCCC2)c1 | i | -0.17
O=C(CCNS(=O)(=O)c1ccccc1)OCc1nnc(-c2ccccc2)o1 | i | 0.28
CCCS(=O)(=O)c1c(S(=O)(=O)CCC)c2c(N)cccn2c1C(=O)c1ccc(Br)cc1 | i | 0.73
Cc1ccc(OC(=O)c2ccccc2C(=O)OCC(F)(F)C(F)F)cc1 | i | 0.76
O=C(/C=C/c1ccco1)OCc1nnc(-c2ccccc2)o1 | i | 0.63
COc1ccc(CN2CCN(C(=O)c3ccc(F)cc3)CC2)c(OC)c1 | i | 1.3
COc1cc(C(=O)Nc2ccc3oc(-c4cccnc4)nc3c2)cc(OC)c1OC | i | 0.15
Cc1cccc(SC2CCN(C(=O)C3CCC(=O)N(C4CC4)C3)CC2)c1 (configuration not stated) | i | 0.04
Cc1cccc(C)c1NC(=O)c1nc(S(=O)(=O)Cc2ccccc2)ncc1Cl | i | -0.86
NNC(=O)C1SCCN1S(=O)(=O)c1ccc(Cl)cc1 (configuration not stated) | i | 1.1
COc1ccc(-c2cc(C(F)(F)F)n3ncc(C(=O)Nc4c(C)n(C)n(-c5ccccc5)c4=O)c3n2)cc1 | i | 0.79
COc1ccc(Cl)cc1C(=O)Nc1nnn(C)n1 | i | 0.17
CCCN1C2CCCC1CC(NC(=O)c1ccc(F)cc1)C2 (configuration not stated) | i | 0.11
Cc1cc(C(=O)Nc2c(C)nn(Cc3ccccc3Cl)c2C)no1 | i | 0.47

Compound profiles, as listed above. Screens in order: KCNQ2 inh | KCNQ2 inh baseline
COc1cc(C(=O)Nc2ccc3oc(-c4cccnc4)nc3c2)cc(OC)c1OC is listed with i | 0.15
COc1ccc(CN2CCN(C(=O)c3ccc(F)cc3)CC2)c(OC)c1 is listed with i | 1.3
CCCN1C2CCCC1CC(NC(=O)c1ccc(F)cc1)C2 (configuration not stated) is listed with i | 0.11

Continued:
SMILES | KCNQ2 inh | KCNQ2 inh baseline
CC(NC(=O)c1ccc(Cl)cc1)C(=O)N1CCCCC1 (configuration not stated) | i | 0.67
Cn1nnc2cc(C(=O)Nc3ccccc3)ccc21 | i | 0.05
COC(=O)CN(c1ccc(Cl)cc1C)S(C)(=O)=O | i | 2
Cc1ccccc1/C=N/Nc1ccc(Cl)nn1 | i | -0.59
COc1ccc(C(=O)NC(=S)NC(C)(C)C)cc1Br | i | 0.73
Cc1cc(Br)ccc1NC(=O)C1CCCO1 (configuration not stated) | i | -1.1
COc1ccccc1NC(=O)C(C)OC(=O)/C(=C/c1ccccc1)NC(C)=O (configuration not stated) | i | 0.83
CC(=O)Nc1ccc(NS(C)(=O)=O)cc1 | i | -1.6
CCN1C(=O)[C@H]2[C@@H](c3ccc(-c4ccc(F)cc4)cc3)N[C@@](CC(C)C)(C(=O)OC)[C@H]2C1=O | i | 0.4
CCN1C(=O)S/C(=C/c2ccc(Oc3ccc([N+](=O)[O-])cn3)c(OC)c2)C1=O | i | 0.35
Cc1ccc(NS(=O)(=O)c2cccc(C(=O)NCC(c3ccc(F)cc3)N3CCOCC3)c2)cc1 (configuration not stated) | i | -0.36
COc1ccc(S(=O)(=O)N(CCCN2CCOCC2)Cc2cccc3ccccc23)cc1 | i | 0.77
CCOc1ccc(CCNC(=O)CS(=O)Cc2nc(-c3ccccc3Cl)oc2C)cc1OCC (configuration not stated) | i | -0.16
CN(Cc1ccc(F)cc1)C(=O)C(Cc1ccccc1)NC(=O)c1ccccc1 (configuration not stated) | i | -1.2
Cc1ccccc1C(=O)Oc1cccc2c(O)cccc12 | i | 0.07
Cc1ccc(NC(=O)c2cc(-c3ccc4c(c3)OCO4)on2)cc1 | i | -0.1
CCN(C(=O)c1c(-c2ccccc2)noc1C)c1ccccc1 | i | 0.75
CC1=NN(/C(=N\c2nnc(C)s2)Nc2ccccc2)[C@H](c2ccc(C)cc2)S1 | i | 0.91
COCc1nnc(NS(=O)(=O)c2ccc(F)cc2)s1 | i | 0.04
COc1ccc(N/N=C(\C#N)C(=O)NCCc2ccc(OC)c(OC)c2)cc1 | i | -0.02
CCc1ccc2c(COC(=O)CNS(=O)(=O)c3ccc(NC(C)=O)cc3)cc(=O)oc2c1 | i | 1.5
CCCn1c(SCC(=O)Nc2nnc(C)s2)nnc1-c1ccoc1C | i | -1.1
COc1ccc(C(=O)N/C(=C/c2ccccc2F)C(=O)NCCN2CCOCC2)cc1OC | i | 3.3
COC(=O)C1=C(C)NC(=O)/C1=C\c1cc(C)n(-c2ccc(F)cc2)c1C | i | -1
Cc1ccc(S(=O)(=O)N2CCC(C(=O)Nc3nnc(-c4ccc(F)cc4)s3)CC2)cc1 | i | -0.34
CCOc1ccc(C(=O)Cc2cc3cccc(OC)c3oc2=O)cc1 | i | -0.48
COc1cc(OC)cc(C(=O)N[C@H](C(=O)Nc2ccc3c(c2)OCO3)C(C)C)c1 | i | 0.05
Cc1nn(-c2ccccc2)c(N2CCCCC2)c1/C=N/O | i | 0.2
O=C(c1ccccc1)N1CCN(C(=O)c2ccccc2)CC1 | i | 2.2
O=C(NNC(=O)c1ccc(Oc2cc(Cl)cc(Cl)c2)o1)c1ccccc1 | i | 2
c1cn(CCCNC2=NCCCCC2)cn1 | i | 0.8
NC(=O)CSc1oc(-c2cccs2)nc1S(=O)(=O)c1ccccc1 | i | 1.2
O=C(CCCn1c(SCC(=O)NCC2CCCO2)nc2ccccc2c1=O)NCc1ccccc1 (configuration not stated) | i | -0.17
Cc1ccc(S(=O)(=O)N2CCC(n3nnc4cc(C)ccc43)CC2)cc1 | i | 0.03
COC(=O)c1ccc(OCCN2CCCCCC2)cc1 | i | -1.9
O=C(N/N=C/c1cc([N+](=O)[O-])cc([N+](=O)[O-])c1O)/C(=C\c1cccs1)NC(=O)c1ccccc1 | i | -3.5

Overlap with the part before: 2 compounds; new compounds follow.
SMILES | KCNQ2 inh | KCNQ2 inh baseline
COC(=O)c1ccc(OCCN2CCCCCC2)cc1 | i | -1.9
O=C(N/N=C/c1cc([N+](=O)[O-])cc([N+](=O)[O-])c1O)/C(=C\c1cccs1)NC(=O)c1ccccc1 | i | -3.5
CCN(CC(=O)NCc1ccc(Cl)cc1)C(=O)/C=C/c1ccc(C#N)cc1 | i | 0.17
N#CCCn1cc(/C=N/NC(=O)c2ccncc2)c(-c2ccccc2)n1 | i | 1.1
COc1ccc(C)cc1S(=O)(=O)N(CC(=O)Nc1cccc([N+](=O)[O-])c1)c1ccc(C)cc1 | i | -0.46
Cc1c(C(=O)OC(C)CCN(C)C)oc2ccccc12 (configuration not stated) | i | 2.5
c1ccc(CSc2nnc(NC3=NCCCCC3)s2)cc1 | i | 1.1
NS(=O)(=O)c1ccc(N/N=C/c2ccc[nH]2)c([N+](=O)[O-])c1 | i | -0.11
CC(NC(=O)Nc1ccc(Br)cc1)C(C)(C)C (configuration not stated) | i | 0.54
COc1ccc(NC(=O)CSc2nnnn2C2CCCCC2)c(OC)c1 | i | 1.7
O=C(Cn1cc(C(=O)C(F)(F)F)c2ccccc21)NCc1ccco1 | i | -0.44
O=C(N/N=C/c1ccc[nH]1)c1cc(-c2ccc(Cl)cc2)nc2ccccc12 | i | 1.6
Cc1cccc(C(=O)NCC(=O)N2CCN(c3ccc(Cl)cc3)CC2)c1 | i | -0.68
CCCCNC(C(=O)Nc1ccc(Cl)c([N+](=O)[O-])c1)c1ccccc1 (configuration not stated) | i | 0.01
CC(C)Cc1ccc(C(C)C(N)=NCCc2ccccc2)cc1 (configuration not stated) | i | -0.28
Cc1cc(C)c(C#N)c(SCC(=O)Nc2ccccc2C)n1 | i | -0.11
CCOCCCn1c(SCC(=O)Nc2cc(C(C)(C)C)nn2-c2ccccc2)nc2ccccc2c1=O | i | 3.5
Cc1ccc(S(=O)(=O)Nc2nc3cc(C)c(C)cc3[nH]2)cc1 | i | 3
CN(C)c1nc(SCCOC(=O)Nc2ccccc2)nc(N(C)C)n1 | i | -2.6
COc1ccc(Br)cc1C(=O)Nc1ccc(Cc2ccncc2)cc1 | i | 2.1
Cc1ccc(C(=O)NCC(=O)OC(C)C(=O)Nc2ccc(N3CCOCC3)cc2)s1 (configuration not stated) | i | -0.76
CC1CCC(NC(=O)COc2ccccc2C(N)=O)CC1 (configuration not stated) | i | 3.2
CCN1CCN(c2cc(=O)n(Cc3ccc(F)cc3)c(=O)[nH]2)CC1 | i | -0.39
CCOC(=O)c1cc2c(n(-c3ccc(Cl)cc3)c1=O)CCCC2=O | i | 0.7
CC(C)(C)C(=O)Cn1c(=N)n(Cc2ccccc2Cl)c2ccccc21 | i | 1.1
NC(N)=N/N=C/c1ccc(Br)cc1 | i | -1.3
Cc1ccc(SCCNC(=O)c2ccc(C)c(S(=O)(=O)Nc3cccc(C)c3)c2)cc1 | i | 0.73
CS(=O)(=O)N1CCc2cc(S(=O)(=O)N3CCN(Cc4ccc5c(c4)OCO5)CC3)ccc21 | i | 0.38
C/C(Cl)=C/CSc1nnc2n(N)c(=O)c3ccccc3n12 | i | 1.3
CC(C)COP(=O)(c1ccc(N(C)C)cc1)C(O)c1cccnc1 (configuration not stated) | i | 0.41
COc1ccc(NC(=O)c2ccc(C)cc2Cl)c([N+](=O)[O-])c1 | i | 0.04
Cc1ccc(-c2nc(CSCC(=O)NCC3CCCO3)c(C)o2)cc1 (configuration not stated) | i | -1.1
O=C(Cn1cnc2ccccc21)Nc1ccc(C(=O)O)cc1 | i | 2
CCOC(=O)c1ccccc1NC(=O)CSc1nccn1C | i | -0.38
O=S(=O)(NCc1ccc(Cl)cc1)c1ccc(Cl)nc1 | i | 0.76
COc1ccccc1N(CC(=O)Nc1ccccc1C(=O)NC(C)C)S(C)(=O)=O | i | 0.05
C[C@H](NC(=O)c1ccccc1Cl)C(=O)OCCOc1cccc(Cl)c1 | -6.7* | -1.2*
O=C(CSc1ncnc2ccccc12)NCc1ccco1 | i | -2
